High-throughput results deposited in PubChem by several laboratories.
Autofluor counter: counter-screen for toxin protease inhibitors: compound fluorescence; AID 624483; compound autofluorescence counterscreen, microsphere flow cytometry; stronger effect = higher value; fluorescence intensity (test concentration not listed); 360,000 tested, 3.1% active;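 active = at least 3 SD above the mean of all compounds, about 16000 in these data; inconclusive = too few beads counted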;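 note: 100 nL of 1 mM stock went into each well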
BJeLR viability: kills HRASV12-expressing BJeLR cells | AID 1554 | BJeLR (HRASV12) viability, CellTiter-Glo ATP luminescence, 48 h; reference of the scale not given here | inhibition, % (test concentration not listed) | 300,000 tested, 0.17% active;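 active = replicate mean above 50%; inconclusive = above 50% but judged a plate artefact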;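 note: 50 nL library stock added to about 25 µL; numbers are from one replicate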
RN4220 kill: S. aureus RN4220 growth inhibition; OD600, 16 h; inhibition, % (concentration not given with the values); 330,000 tested, 0.33% active; AID 1259311;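 active = z-score of -3 or lower and OD600 up to 0.18 on both plates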;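 note: plate controls were untreated cells for no effect and reference antibiotic for full effect; stock transfer was 100 nL into about 80 µL; one replicate is shown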
ugtP null kill: kills S. aureus RN4220 lacking UgtP | S. aureus RN4220 ugtP deletion, OD600 growth, 16 h; some inactives read as strong as hits | growth inhibition, % (test concentration not listed) | 330,000 tested, 0.54% active | AID 1259309;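 active = z-score under -3 and OD600 up to 0.15 on both plates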;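 note: plate controls were untreated wells for no effect and antibiotic for full effect; wells of about 80 µL received 100 nL stock; the first replicate is given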
Mtb hypoxia rep: inhibitors of hypoxia-regulated fluorescent reporter in Mycobacterium tuberculosis. M. tuberculosis hypoxia-regulated fluorescent reporter, fluorescence. fluorescence inhibition, % (no concentration beside the values). 300,000 tested, 0.1% active. AID 1159583;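 active = 35 to 45% if threefold the growth effect, above 45% if 1.5-fold the growth effect; inactive = the rest, general growth blockers included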;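 note: wells of about 50 µL received 100 nL stock; 0% = vehicle wells and 100% = reference inhibitor wells; whole bacteria with a GFP reporter of the hypoxia response; strong numbers were not always called active; many hits fall short of the cut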
PrP UTR inh: suppresses PrP 5' UTR mRNA reporter expression. cell-based PrP 5' UTR mRNA reporter, plate reader. inhibition, % (concentration not given with the values). 340,000 tested, 0.35% active. AID 488862;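 active = every replicate at 50% or more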;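 note: 0 = median of the neutral control wells; tested in H4 reporter cells; numbers are from one replicate; inactives centre near -14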
Mtb hypoxia rep growth: also measured in Mtb hypoxia rep; calls as there; growth inhibition, %; measured here: M. tuberculosis growth (absorbance);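 0% = vehicle and 100% = reference antibiotic; read after six days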
* marks the source's active call; other numbers are inactive results; ? = inconclusive; · = not tested or not shown; & = joins results of further samples.

Every second line gives: ugtP null kill, PrP UTR inh, Mtb hypoxia rep, RN4220 kill, Autofluor counter, BJeLR viability, Mtb hypoxia rep growth
Cc1cccc(NC(=O)C2CC(=O)OC23CCCC3)c1 (stereo unspecified)
    1, -18, ·, 2.9, 4884, -4, ·
C/C(=N\NC(=O)c1ccc(N/N=C(\C)c2ccncc2)cc1)c1ccncc1
    ·, -22, ·, ·, 2380, 13, ·
N#C/C(=C(/O)COC(=O)CCc1ccc(S(=O)(=O)N2CCOCC2)cc1)c1nc2ccccc2[nH]1
    ·, -4, ·, ·, 3551, -4, ·
CCN(CC)CCCNC(=O)CNC(=S)N(CCCN1CCOCC1)Cc1cccs1
    7, -21, -7, 3.0, 4043, -3, 5
CCc1nc(Nc2ccccc2)c2oc3ccccc3c2n1
    -20, -1, 20, 12, 19756*, -3, 13
CC(=O)N(C1CC(C)C(C#N)(C#N)C1(C#N)C#N)N(C)C (stereo unspecified)
    4, -12, 10, 1.0, 3388, -12, 13
CN1CCC(=O)N(C(CSc2ccc(Br)cc2)c2ccccc2)CC1 (stereo unspecified)
    12, ·, 23, 1.5, ·, ·, 12
CN(Cc1ccccc1)Cc1nc2c([nH]1)c(=O)[nH]c(=O)n2C
    8, -2, 6, 7.0, 16968*, 6, 6
COc1cccc(NC(=O)COC(=O)c2c(C)noc2C)c1
    -4, -4, -9, -0.6, 3947, ·, 5
Clc1ccc(C2=NCCn3nc4ccccc4c32)cc1
    6, -29, 4, 7.3, 4269, 6, 8
CNCC(O)Cn1c(C(F)(F)F)nc2ccccc21 (stereo unspecified)
    5, 3, ·, 3.6, 3118, -3, ·
COc1cc2c(cc1OC)-c1cc(NC3CC3)nc(=O)n1CC2
    -1, -15, 9, 5.7, 3348, 0, 12
Cc1ccc(C(=O)Cn2ncsc2=N)cc1
    6, -42, 1, 5.7, 8193, -3, 6
Nc1ncnc(Nc2cc(Cl)cc(Cl)c2)c1[N+](=O)[O-]
    ·, -12, ·, ·, 1979, -7, ·
Cc1cc(C)nc(SCc2cn3cc(Cl)ccc3n2)n1
    14, 1, -10, 6.5, 2613, -8, 1
CCOC(=O)N1CCN(CC(O)COC2CC(C)CC(C)(C)C2)CC1 (stereo unspecified)
    6, -34, ·, 7.6, 3027, 9, ·
COc1ccc(C)c(S(=O)(=O)Nc2ccc(OCC(=O)O)cc2)c1
    12, -25, ·, -0.6, 4275, -1, ·
COc1ccc2[nH]c(C(=O)O)c(CCN3C(=O)c4cccc([N+](=O)[O-])c4C3=O)c2c1
    ·, -4, ·, ·, 3457, 2, ·
COc1ccccc1CNC(=O)COC(=O)c1nc(Cl)ccc1Cl
    -6, -12, 3, 1.2, 3485, 12, 7
Cn1c(SCC(=O)n2c3c(c4ccccc42)CCCC3)nnc1-c1ccccc1
    -10, -31, 11, 8.9, 22437*, -6, 8

The list goes on (3 carried over from the part before).
Every second line gives: ugtP null kill, PrP UTR inh, Mtb hypoxia rep, RN4220 kill, Autofluor counter, BJeLR viability, Mtb hypoxia rep growth
COc1ccc2[nH]c(C(=O)O)c(CCN3C(=O)c4cccc([N+](=O)[O-])c4C3=O)c2c1
    ·, -4, ·, ·, 3457, 2, ·
COc1ccccc1CNC(=O)COC(=O)c1nc(Cl)ccc1Cl
    -6, -12, 3, 1.2, 3485, 12, 7
Cn1c(SCC(=O)n2c3c(c4ccccc42)CCCC3)nnc1-c1ccccc1
    -10, -31, 11, 8.9, 22437*, -6, 8
O=C(CSc1ncn(-c2ccccc2)n1)Nc1ccc(Br)cn1
    17, -4, -8, 22, 21921*, 0, 11
CCN(CC)CCCN=Cc1c(O)n(-c2ccccc2C)c(=O)c2ccccc12
    8, -28, -4, 0.7, 4235, -2, -3
CCNC(=O)NC(=O)CSc1nc2ccccc2n1CC(C)C
    -4, -10, ·, 5.1, 2310, -6, ·
Cc1cccn2cc(-c3ccc(F)cc3)nc12
    2, -38, 5, 9.7, 23835*, -1, 4
CC(O)C(O)C(O)C(O)C1NCCS1 (stereo unspecified)
    10, 2, ·, 0.7, 4241, 9, ·
COC(=O)[C@@]12CCCCN1C(c1ccc(-c3ccc(OC)cc3)c(OC)c1)C1C(=O)N(C)C(=O)C12 (stereo partly specified)
    -13, ·, 4, 2.0, ·, ·, 10
CCn1cc(S(=O)(=O)c2cccc(C)c2)c(=O)c2cc(F)c(N3CCN(C)CC3)cc21
    9, 0, 5, 3.6, 4305, -15, -3
CCn1c(SCC(=O)Nc2nc(C)c(C(=O)OC)s2)nnc1C(C)C
    2, -4, ·, 5.6, 4634, -3, ·
Cc1ccc(C)c(NC(=O)CCc2ccc(C)o2)c1
    9, 0, ·, 8.6, ·, 0, ·
COc1ccc2nc(SCC(=O)Nc3nccs3)[nH]c2c1
    5, -16, 11, 4.8, 2154, 1, 4
CC1OC(OCC2OC(Oc3c(-c4ccc(O)cc4)oc4cc(O)cc(O)c4c3=O)C(O)C(O)C2O)C(O)C(O)C1O (stereo unspecified)
    -6&-11, -4, 3, -3.3&6.0, 5534, -7, 0
CCOC(=O)c1c[nH]n(-c2ccc(C)cc2)c1=O
    3, -20, 5, 0.1, 3236, -6, 8
CC1(NC(=O)CCS(=O)(=O)c2ccc(Cl)cc2)CCS(=O)(=O)C1 (stereo unspecified)
    -5, 2, -2, -3.2, 3114, ·, -3
CCCCN(C(=O)NC(=O)Nc1cc(C)ccc1C)S(C)(=O)=O
    7, -23, 6, 3.3, 6381, 3, 2
O=C(CSc1nnc(Cn2c(=O)sc3ccccc32)n1-c1ccccc1)NCc1ccco1
    2, -14, ·, 1.2, 5852, ·, ·
O=[N+]([O-])c1ccc(N2CCN(c3ccc(Cl)nn3)CC2)c(Cl)c1
    -6, -7, -13, -3.6, 20451*, 5, 0
NC(=S)N/N=C\c1ccccc1OCc1ccccc1
    ·, -23, ·, ·, 2114, -10, ·
CC(C)CC(=O)N1CCN(c2ccc([N+](=O)[O-])c(NCc3ccccc3)c2)CC1
    9, -4, ·, -6.0, 3785, 3, ·
CC1CN(S(=O)(=O)c2cc(C(=O)N(CCc3ccccc3)Cc3ccccc3)ccc2Cl)CC(C)O1 (stereo unspecified)
    -6, 1, -3, -3.3, 5963, 8, 0
CCOc1ccc(CCN2C(=O)CCC2(C)C(=O)NC(C)CC)cc1OCC (stereo unspecified)
    -2, -7, -7, 1.8, 23716*, 11, -5

Continuation:
Every second line gives: ugtP null kill, PrP UTR inh, Mtb hypoxia rep, RN4220 kill, Autofluor counter, BJeLR viability, Mtb hypoxia rep growth
O=C(O)c1cccc(S(=O)(=O)Nc2ccc([N+](=O)[O-])cc2O)c1
    5, -16, 3, 1.0, 3710, -2, 8
O=C(CSc1nc(=O)n2ccccc2n1)Nc1ccc2c(c1)OCCO2
    6, -2, 2, -1.2, ?, 5, 3
COc1ccc2c(c1)CCCC2=NOC(=O)c1ccccc1OC
    -4, ·, 2, 8.9, ·, ·, 1
COc1ccccc1NC(=O)c1c(NC(=O)CCC(=O)O)sc2c1CCCCC2
    4, -22, -6, 6.6, 3414, 2, -2
COc1ccc(-c2nc3cc(C)ccn3c2NCC2CCCO2)cc1OC (stereo unspecified)
    -2, -12, 9, -3.0, 3872, -6, 6
O=C(O)CCCCCCCCCCC1CCC(O)C1O (stereo unspecified)
    2, 7, 14, 0.5, 4164, ·, 11
CCOC(=O)c1ccc(N/C=C/C(=O)c2ccc(OC)c(OC)c2)cc1
    -10, -23, 4, 4.3, 19087*, 6, 4
O=c1cc(-c2ccco2)oc2c1ccc1ccccc12
    ·, -7, ·, ·, 3224, 3, ·
CCOC(=O)c1c(-c2ccc(C)o2)csc1NC(=O)CSc1nnnn1-c1ccccc1
    -12, -16, -3, 0.8, 8413, 4, 4
Cc1cc(CN2CCCC(C(=O)Nc3ccc(-c4nc5ccccc5[nH]4)cc3)C2)n[nH]1 (stereo unspecified)
    -7, -11, -7, -0.7, 6172, -9, 3
COc1ccc(C=NNc2nc(C(=O)O)cs2)cc1
    1, ·, 16, 0.8, ·, ·, 16
COc1ccc(-c2cc(CN3C(=O)c4ccccc4C3=O)on2)cc1
    16, -3, -4, 3.3, 10362, 3, 4
Cc1cc(C)n2nc(SCc3cccc(F)c3)nc2n1
    1, -29, 8, 1.2, 3781, -10, 2
O=C(CCC1CCN(Cc2ccccc2Cl)CC1)NC1CC1
    -2, 9, -6, -3.7, 4183, -11, 5
CCN(CC)Cc1c(O)ccc2c(=O)c(-c3ccccc3Cl)coc12
    2, 4, -11, 3.5, 3120, -9, -2
Cc1ccc(C=NNc2nnc(Cl)c3ccccc23)cc1
    -14, ·, -10, -2.2, ·, ·, 7
Cc1ccc(SCC(=O)OCC(=O)NCCc2ccc(S(N)(=O)=O)cc2)c(C)c1
    5, -18, 3, 3.2, 4111, ·, 8
O=C(Cn1ccc2cc(S(=O)(=O)N3CCCCC3)ccc21)NCc1ccccc1F
    1, -2, 9, -1.9, 5326, 7, 9
Nc1nnc(CCCCCCCCCCc2nnc(N)s2)s1
    -1, -18, -15, 2.5, 2429, -2, -2
CCOCCOC(=O)c1ccc(-n2cnc(C)n2)nc1
    10, -8, -11, 4.8, 2577, 4, -5

Additional compounds
Every second line gives: ugtP null kill, PrP UTR inh, Mtb hypoxia rep, RN4220 kill, Autofluor counter, BJeLR viability, Mtb hypoxia rep growth
O=C(O)Cc1ccc(NC(=O)c2cccs2)cc1
    3, -24, 10, 6.3, 19709*, -13, 15
CCOCCCNC(=O)CCSc1ccc(C)cc1
    2, -19, -6, 3.6, 9855, -3, 1
CCc1ccc(NC(=O)COc2ccc(F)cc2C(=O)c2cnn(-c3ccccc3)c2)cc1
    -22, -62, -1, -3.9, 2111, -3, 6
C=CCSc1nc2ccccc2c2nc(-c3ccccc3)nn12
    -9, -19, ·, -8.4, 2214, 3, ·
COc1ccc(/C=C2\SC(=S)N(CCC(=O)Nc3cccc(O)c3)C2=O)cc1
    9, -31, 12, 37, 3366, -2, 9
CCOC(=O)N1CCN(C(=O)CN(c2cccc(C)c2)S(=O)(=O)c2ccc(C)cc2)CC1
    4, -56, 9, 7.7, 5574, 3, 1
COc1cccc(-c2c(C(=O)N/N=C/c3ccoc3)nnn2-c2nonc2N)c1
    ·, -3, ·, ·, 4946, -9, ·
O=C(/C=C/c1cccs1)c1cc(Cl)ccc1O
    -2, -15, -1, 1.0, 4043, 1, 6
CC1CCN(c2c(NCC3CCC(C(=O)Nc4ccccn4)CC3)c(=O)c2=O)CC1 (stereo unspecified)
    4, 5, -3, 2.2, 4419, 0, 1
OCCCn1c(C2CCCN2c2nc(-c3ccc(Cl)cc3)cs2)nc2cc(C(F)(F)F)ccc21 (stereo unspecified)
    -27, -3, 4, -8.6, 4770, -12, 8
CCc1cc2c(SCC(=O)c3ccc(C)cc3)ncnc2s1
    10, -15, 1, 11, 3459, -5, 2
COc1ccc(NC(=O)C(NC(=O)c2ccccc2)C(C)C)cc1 (stereo unspecified)
    1, -25, 5, 1.6, 5635, -2, 16
Cc1c(NC(=O)C(=Cc2cccs2)NC(=O)c2ccccc2)c(=O)n(-c2ccccc2)n1C
    -3, ·, 4, 4.2, ·, ·, 10
CCOC(=O)Cc1csc(NC(=O)c2cccc(N3C(=O)CCC3=O)c2)n1
    4, -5, 8, 2.7, 8807, -1, 2
CCOC(=O)N1CCN(C(=O)c2ccc(Cn3c(=S)[nH]c4cc(OCC)c(OCC)cc4c3=O)cc2)CC1
    8, -20, 2, 14, 4366, 7, 16
Cc1ccc(C(=O)NC2CC3CCCC(C2)N3C(=S)NCc2ccco2)cc1 (stereo unspecified)
    6, -4, 10, -1.3, 5118, 4, 14
